# Screening data deposited in PubChem BioAssay by ICCB-Longwood Screening Facility, Harvard Medical School.
# Choline anaer gr: inhibitors of anaerobic choline-dependent gram-negative bacterial growth | calls only | 0.2% of 55,000 active | Gram-negative bacterium anaerobic choline minimal medium, absorbance growth; active compounds read low; many inactives read as strong as hits in the columns shown;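 active = growth z-score on choline under -2 at 7 or 20 h with little or no fall on glycerol, limits in tiers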;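 note: stock transfer was 300 nL into about 50 µL; the organism is E. coli; final concentration not given here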
# Choline anaer gr early: recorded beside Choline anaer gr, whose call it bears; z-score; measured here: choline growth z-score, timepoint 1;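 score of optical density at 7 h as mean of two plates; lower means less growth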
# The depositor's hits bear a star; i = inactive; & = joins results of further samples. These rows are one share of the data; count on the stated rates, not on these rows.
# The line under a structure holds: Choline anaer gr, Choline anaer gr early
C[N+]1(C)CCC(OC(=O)C(c2ccccc2)c2ccccc2)CC1
→ i, -0.01&-0.16
O=C(NCc1ccccc1)N1Cc2ccccc2-n2cccc2C1c1ccc(Cl)cc1 (centres undefined)
→ i, 1.2
COc1ccc(C2=NCC(=O)N(CC(=O)Nc3ccc(F)cc3)c3sccc32)cc1
→ i, 1.8
Clc1ccc(C(Cn2ccnc2)OCc2csc3c(Cl)cccc23)c(Cl)c1 (centres undefined)
→ i, -0.45&-0.28
CC(Cc1ccc(OCC(=O)O)cc1)NCC(O)c1cccc(Cl)c1 (centres undefined)
→ i, 1.1
O=C(O)[C@@H]1CCN1
→ i, 0.75
C=CCNC(=O)c1cc2cccnc2n(Cc2ccc(F)cc2)c1=O
→ i, -0.75
CCOc1ccc(NC(=O)N2Cc3ccccc3-n3cccc3C2c2ccc(Cl)cc2)cc1 (centres undefined)
→ i, 1.2
Cn1c(CCCC(=O)O)nc2cc(N(CCCl)CCCl)ccc21
→ i, -0.49
O=C(CN1CCN(C(=O)COc2ccc(F)cc2)CC1)Nc1nnc(-c2ccccc2)s1
→ i, 0.45
Fc1ccc(C2NCCc3[nH]cnc32)c(F)c1 (centres undefined)
→ i, 1.2
COCCCOc1ccnc(CS(=O)c2nc3ccccc3[nH]2)c1C (centres undefined)
→ i, 0.25
CN(C)CCNC(=O)c1cc2cccnc2n(Cc2ccccc2)c1=O
→ i, -0.21
CO[C@H]1CC=C2CCN3CCC4=C(CC(=O)OC4)[C@]23C1
→ i, 0.07
Fc1cc(Br)ccc1C1NCCc2[nH]cnc21 (centres undefined)
→ i, 0.2
C=CCNC(=O)c1cc2cccnc2n(Cc2ccccc2)c1=O
→ i, 0.54
NCC(O)c1cc(O)c(O)cc1F (centres undefined)
→ i, 0.84
CCOc1ccccc1NC(=O)N1Cc2c(C)cc(C)nc2-n2cccc2C1c1ccc(F)cc1 (centres undefined)
→ i, 0.87
C[C@]12CCC(=O)C=C1CCC1C2CC[C@@]2(C)C1CC[C@]2(C)O (some centres undefined)
→ i, 0.26
COc1ccc(CCN)cc1OC
→ i, 0.84

# Part of the list above, as tab-separated lines:
structure	Choline anaer gr	Choline anaer gr early
Clc1ccc(C(Cn2ccnc2)OCc2csc3c(Cl)cccc23)c(Cl)c1 (centres undefined)	i	-0.45&-0.28
CC(Cc1ccc(OCC(=O)O)cc1)NCC(O)c1cccc(Cl)c1 (centres undefined)	i	1.1

# Individual results from above:
# Entry for `Fc1cc(Br)ccc1C1NCCc2[nH]cnc21` (centres undefined) under Choline anaer gr early: 0.2
# Entry for `CO[C@H]1CC=C2CCN3CCC4=C(CC(=O)OC4)[C@]23C1` under Choline anaer gr early: 0.07

# Carrying on:
# The line under a structure holds: Choline anaer gr, Choline anaer gr early
CN1Cc2ccccc2[C@@H]2c3cccc4[nH]cc(c34)C[C@H]21
→ i, 0.01
CC(C)[C@@]12OC1C1O[C@]13[C@]1(OC1C[C@@H]1C4=C(CC[C@@]13C)C(=O)OC4)C2O (some centres undefined)
→ i, 0.28
COc1ccc(C2SCC(=O)Nc3c2c(-c2ccccc2)nn3-c2ccccc2)cc1OC (centres undefined)
→ i, 0.21
CCCC12CN3CC(CCC)(CN(C1)C3C)C2=O (centres undefined)
→ i, 0.42
OC(Cc1ccncc1)C(Cl)(Cl)Cl (centres undefined)
→ i, 0.26
O=C(NCCc1c[nH]c2ccccc12)c1cc2cccnc2n(Cc2ccccc2F)c1=O
→ i, 1.3
CC(Cc1ccccc1)NCCC(c1ccccc1)c1ccccc1 (centres undefined)
→ i, -0.83
CN(C)CC(=O)c1ccc2cc[nH]c2c1
→ i, -0.38
CCn1c(C2CCCNC2)n[nH]c1=O (centres undefined)
→ i, 0.92
CN1C(=O)CN=C(c2ccccc2)c2cc(Cl)ccc21
→ i, -0.48

# Profiles as entered above. Order of values: Choline anaer gr, Choline anaer gr early
# CN(C)CCNC(=O)c1cc2cccnc2n(Cc2ccccc2)c1=O across the screens: i, -0.21
# CCCC12CN3CC(CCC)(CN(C1)C3C)C2=O (centres undefined) across the screens: i, 0.42
# CC(Cc1ccccc1)NCCC(c1ccccc1)c1ccccc1 (centres undefined) across the screens: i, -0.83
# CCOc1ccccc1NC(=O)N1Cc2c(C)cc(C)nc2-n2cccc2C1c1ccc(F)cc1 (centres undefined) across the screens: i, 0.87

# More records:
# The line under a structure holds: Choline anaer gr, Choline anaer gr early
C=CCN1CC[C@]23c4c5ccc(O)c4O[C@H]2C(=O)CC[C@@]3(O)[C@H]1C5
→ i, 0.88&0.61&1
CCCN1CCC2(CC1)NCCc1[nH]cnc12
→ i, 1.1
Nc1cc2c(ncn2CCOCP(=O)(O)O)c(=O)[nH]1
→ i, 0.64
COc1ccc2[nH]cc(C3=CCNCC3)c2c1
→ i, -0.42
Clc1ccc(C(OCCN2CCCCC2)c2ccccc2)cc1 (centres undefined)
→ i, -0.86
O=C(COc1ccc(Cl)cc1)N1CCN(CCc2ccccn2)CC1
→ i, -1.8
O=C(Cc1ccccc1)N1CCN(Cc2cc(=O)n3nc(-c4ccccc4Cl)sc3n2)CC1
→ i, -0.18
CNCCc1cnc[nH]1
→ i, 0.96
CCOc1ccc(CNc2nc3ccccc3n2CCN(CC)CC)cc1
→ i, -0.86
COc1ccc2c(c1)C1(CCN(S(=O)(=O)c3ccc4c(c3)CC(=O)N4C)C1)C(=O)N2C (centres undefined)
→ i, -0.12
C=C1C[C@@H]2[C@H](CC[C@]3(C)C(=O)CC[C@@H]23)[C@@]2(C)C=CC(=O)C=C12
→ i, 0.47
Cc1[nH]c2ccccc2c1C1=CCN(C)CC1
→ i, -1.1
COc1ccc(CNC(=O)/C=C/c2ccc3[nH]cc(CCN(C)C)c3c2)cc1
→ i, -0.96&-0.14
NC(=O)CI
→ i, -3.1
CN1C2C[C@H](OC(=O)[C@H](CO)c3ccccc3)C[C@H]1[C@@H](O)C2
→ i, 0.38
Cc1cccc(C)c1NC(=O)c1cccn(Cc2cccc(F)c2)c1=O
→ i, -0.08
N#C/C(=C\c1ccc(O)c(O)c1)C(N)=S
→ i, 0.35
C=CCN1CCC23c4c5ccc(O)c4O[C@H]2C(=O)CC[C@@]3(O)C1C5 (some centres undefined)
→ i, 0.03
CCCCC/C=C\C/C=C\C/C=C\CCCCCCC(=O)NCCO
→ i, 0.34
Cc1[nH]nc2c1C(c1ccc(F)cc1F)SCC(=O)N2 (centres undefined)
→ i, 0.7
O=C(Nc1ccon1)c1cccn(Cc2ccc(Br)cc2)c1=O
→ i, 0.93
C[C@]12Cc3cn4c(nc3C=C1CCC1C2CC[C@@]2(C)[C@H]1CC[C@@]2(O)C#N)nc1ccccc14 (some centres undefined)
→ i, 0.44
N[C@]1(C(=O)O)CC[C@@H](C(=O)O)C1 (racemic)
→ i, -0.54
CN(C(=O)Cc1ccc(Cl)c(Cl)c1)[C@H](CN1CCCC1)c1ccccc1
→ i, -1.8
CCCS(=O)(=O)N1CCC2(C1)C(=O)N(C)c1ccc(OC)cc12 (centres undefined)
→ i, 0.1
Oc1ccc2c3c1OC1C(O)CC[C@@]4(O)C(C2)N(CC2CCC2)CC[C@]314 (some centres undefined)
→ i, -0.04
CC(C)NC(=O)CCc1nc(C2=CCN(Cc3ccc(Cl)cc3)CC2)no1
→ i, -0.54
COc1ccc2c(c1OC)C(=O)O[C@H]2[C@@H]1c2cc3c(cc2CCN1C)OCO3
→ i, 1.1
c1cncc(C2NCCc3[nH]cnc32)c1 (centres undefined)
→ i, 0.64
Cc1cc(Br)ccc1NC(=O)c1cccn(Cc2cccc(F)c2)c1=O
→ i, 0.11
O=S(=O)(O)c1cc(O)ccc1O
→ i, 0.55&0.51
CCC12CN3CC(CC)(CN(C1)C3c1c(C)[nH]c(=O)[nH]c1=O)C2=O (centres undefined)
→ i, 0.04
C=CCOc1c(OC)cccc1C1SCC(=O)Nc2n[nH]c(C)c21 (centres undefined)
→ i, -1.1
C[N+]1(C)C2CCC1CC(OC(=O)C(CO)c1ccccc1)C2 (centres undefined)
→ i, 0.08&0.44
CCCCC[C@@H](/C=C/C=C\CCCCCCCC(=O)O)OO
→ i, 0.76
COc1ccc(C(=O)N2CCC3(C2)C(=O)N(C)c2ccc(OC)cc23)c(OC)c1 (centres undefined)
→ i, -0.07
CCOC(=O)CC(SP(=S)(OC)OC)C(=O)OCC (centres undefined)
→ i, -0.09
Cn1cnc(CCN)c1
→ i, 0.37
CCCCC/C=C\C/C=C\C/C=C\C/C=C\CCCC(=O)NCCOP(=O)(O)O
→ i, 1.4
CC[C@@]1(O)C(=O)OCc2c1cc1n(c2=O)Cc2cc3ccccc3nc2-1
→ i, 0.58&-1.3&-0.16
COc1ccc2c(c1)[C@]13CCCCC1C(C2)N(C)CC3 (some centres undefined)
→ i, -1.5
COc1ccc(Cl)cc1NC(=O)CN1C(=O)CN=C(c2ccccc2)c2ccccc21
→ i, -0.38
C[C@]12CC[C@H](O)C[C@@H]1CC[C@@H]1[C@@H]2CC[C@]2(C)C(=O)CC[C@@H]12
→ i, 0.27
CCN1CCN(c2cc(C)nc(C)n2)CC1
→ i, -1.2
O=S1(=O)N(CCN2CC=C(c3c[nH]c4cc(F)ccc34)CC2)c2cccc3c2N1CCC3
→ i, 0.83
Cc1o[nH]c(=O)c1C[C@H](N)C(=O)O
→ i, 0.42
CCN(CC)CCOC(=O)C(O)(c1ccccc1)c1ccccc1
→ i, -1.1
O=C(NCCN1CCOCC1)c1cc2cccnc2n(Cc2ccc(F)cc2)c1=O
→ i, 0.7
O=C(O)C1=CCCN(CCOC(c2ccc(C(F)(F)F)cc2)c2ccc(C(F)(F)F)cc2)C1
→ i, 0.84
CC(C)Oc1ccc(C2SCC(=O)Nc3c2c(-c2ccccc2)nn3-c2ccccc2)cc1 (centres undefined)
→ i, -0.33

# Going on with the list.
# The line under a structure holds: Choline anaer gr, Choline anaer gr early
O=c1[nH]c2ccccc2n1C1CCN(CCCC(c2ccc(F)cc2)c2ccc(F)cc2)CC1
→ i, -0.22&1&-0.38&0.59&0.77
CCCN(CCC)CCc1ccc(O)c(O)c1
→ i, 0.11
CC(N)Cc1c[nH]c2ccc(O)cc12 (centres undefined)
→ i, 0.67&0.31
COc1ccccc1NC(=O)CN1CC=C(c2cnn(C)c2)CC1
→ i, 0.01
CC(C)(O)C1C2OC(=O)C1[C@]1(O)CC3O[C@]34C(=O)OC2[C@]14C (some centres undefined) (tested in a mixture with another compound)
→ i, 0.48
CCC(=O)O[C@H]1CC[C@H]2[C@@H]3CCC4=CC(=O)CC[C@]4(C)[C@H]3CC[C@]12C
→ i, -0.27
CCC(C)NC(=O)CN1C(=O)CN=C(c2ccccc2)c2ccccc21 (centres undefined)
→ i, 1.4
C[C@]12CC[C@H](O)CC1=CC[C@@H]1[C@@H]2CC[C@]2(C)C(=O)CC[C@@H]12
→ i, -0.18
O=P1(NCCCl)OCCCN1CCCl (centres undefined)
→ i, 0.58&0.87
c1ccc2c(N3CCNCC3)cccc2c1
→ i, -1.5

# Taken from the listing (two entries):
# The line under a structure holds: Choline anaer gr, Choline anaer gr early
C[C@]12CC[C@H](O)CC1=CC[C@@H]1[C@@H]2CC[C@]2(C)C(=O)CC[C@@H]12
→ i, -0.18
O=P1(NCCCl)OCCCN1CCCl (centres undefined)
→ i, 0.58&0.87

# Continuation.
# The line under a structure holds: Choline anaer gr, Choline anaer gr early
COc1ccc(NC(=O)N2CCC3(C2)C(=O)N(C)c2ccc(OC)cc23)c(OC)c1 (centres undefined)
→ i, -0.04
S=C=Nc1cccc(C2(N3CCCCC3)CCCCC2)c1
→ i, -1.1
CC(=O)N1N=C2C3CCN(CC3)[C@@H]2[C@@H]1c1cc(C)cc(C)c1
→ i, 0.35
NC(CCP(=O)(O)O)C(=O)O (centres undefined)
→ i, -0.39
CCOC(=O)Cc1ccc(NC(=O)N2Cc3ccccc3-n3cccc3C2c2ccc(CC)cc2)cc1 (centres undefined)
→ i, 0.19
COc1ccc2c(c1)C1(CCN(S(=O)(=O)c3cc(OC)ccc3OC)C1)C(=O)N2 (centres undefined)
→ i, -0.52
COc1ccc2c(c1)C1(CCN(S(=O)(=O)c3ccc(C)cc3)C1)C(=O)N2C (centres undefined)
→ i, 0.52
Cc1[nH]c2ccccc2c1/C=C/c1nc2ccccc2c(=O)n1-c1ccccc1
→ i, -1.1
COc1ccc2c(c1)[nH]c1c(C)nccc12
→ i, -1.1&-5.3
c1ccc(C2CC2)c(OCC2=NCCN2)c1
→ i, 0.15&0.31&-1.1&0.96
COc1ccc(S(=O)(=O)N2CCC3(C2)C(=O)N(C)c2ccc(OC)cc23)cc1 (centres undefined)
→ i, 0.1
C[C@H](NC[C@H](O)CP(=O)(O)CC1CCCCC1)c1ccc(Cl)c(Cl)c1
→ i, 0.91
O=C(COc1ccccc1)N1CCN(CCc2ccccn2)CC1
→ i, -1.8
CCCC[C@@H](C)[C@@H](OC(=O)C[C@@H](CC(=O)O)C(=O)O)[C@H](C[C@@H](C)C[C@H](O)CCCC[C@@H](O)C[C@H](O)[C@H](C)N)OC(=O)C[C@H](CC(=O)O)C(=O)O
→ i, -0.79
CCCCCCC[n+]1ccc(-c2cc[n+](CCCCCCC)cc2)cc1
→ i, -4.8
C=CCN=C=S
→ i, 0.03
CCc1cccc(CC)c1NC1=NCCN1
→ i, 0.32
C=C(C)[C@H]1O[C@H]2CC[C@@]3(C)[C@@](O)(CC[C@H]4[C@@H]5OC(C)(C)[C@H]6C[C@@H]7C(=C)Cc8c(Cl)cc9[nH]c(c5c9c8[C@@]76O)[C@@]43C)[C@]23O[C@@H]3[C@H]1O
→ i, 0.44
CCCC[N+]1(C)[C@@H]2CC(OC(=O)[C@H](CO)c3ccccc3)C[C@H]1[C@@H]1O[C@@H]12 (some centres undefined)
→ i, 0.47&0.81
c1cncc(C2CCCN2)c1 (centres undefined)
→ i, -1
CC(C)Cn1ccnc(N2CCN(C)CC2)c1=O
→ i, -1.7
CCN(CC)CCO[C@H]1CC[C@@]2(C)C(=CC[C@@H]3[C@@H]2CC[C@]2(C)C(=O)CC[C@@H]32)C1
→ i, -0.75
O=C(NCCc1c[nH]c2ccccc12)c1cc2cccnc2n(Cc2ccccc2)c1=O
→ i, -0.1
N#CC(C#N)=Cc1ccc(O)c(O)c1
→ i, -1.3
O=C1[C@@H]2CCCN2[C@@H](c2cccc(Cl)c2)N1c1ccccn1
→ i, 0.74
